Bioassay records deposited in PubChem by National Center for Advancing Translational Sciences (NCATS).
2A Renilla: FMDV 2A StopGo reporter, Renilla signal. HEK cells with a luciferase reporter of 2A StopGo recoding. Potency, µM (doses to about 57.5 µM), for inactives: top-dose signal change, negative = less light. actives 0.32% (n = 120,000). AID 1745857; active means well fitted falling curve with a large enough effect; inconclusive means small, poorly fitted or top-dose-only effect; inactive means no such curve, though single readings can be large or run the other way; further: nearly all actives have a fitted effect of over 55% in size; overnight with compound
StopGo FLuc: lowers the firefly signal of an FMDV 2A StopGo reporter; HEK cells with a luciferase reporter of 2A StopGo recoding; Potency, µM (doses to about 57.5 µM), for inactives: top-dose signal change, negative = less light; actives 0.23% (n = 120,000); active = well fitted falling curve with a large enough effect; inconclusive = small, poorly fitted or top-dose-only effect; inactive = no such curve, though single readings can be large or run the other way; further: nearly all actives have a fitted effect of over 60% in size; overnight with compound
* marks the source's active call; other numbers are inactive results; ? = inconclusive; & = joins results of further samples; [ ] = dose if it differs, or a comment. On the % scale 0 is the no-effect control and ±100 the full control effect; potency means the concentration at half of the fitted maximal effect.

Each structure is followed by: 2A Renilla | StopGo FLuc
> COc1ccc(OCC(=O)N[C@H]2CCCC[C@@H]2NC(=O)COc2ccc(OC)cc2)cc1
    18% | 3%
> Oc1ccc(NCc2ccc(OCc3ccccc3Cl)cc2)cc1
    11% | 98%[activator]
> CCOC(=O)c1noc2ncnc(N3CCN(c4ccccc4OC)CC3)c12
    48%[activator] | 10%
> COc1ccccc1NC(=O)CSc1ncnc2ccccc12
    -11% | 0%
> Cc1cccc(CN2C(=O)CC(c3ccc(Cl)cc3)c3c(C)nn(-c4nc(C)cc(C)n4)c32)c1 (stereo not drawn)
    143%[activator] | -11%
> Fc1ccc(CNc2nc3c(-c4ccc(F)cc4)nnn3c3ccccc23)cc1
    2% | 87%[activator]
> CCOC(=O)c1sc(NC2CC2)nc1C(F)(F)F
    -5% | 21%
> CSc1ccc(/C=C/C(=O)c2ccc(S(=O)(=O)NCC(=O)O)cc2)cc1
    -1%[1.06 µM] | -6%
> Cc1ccc(-c2nc3ccccc3s2)cc1
    7% | 62%[activator]
> COc1ccc(-c2cc3nc(C)c(CCC(=O)N4CCN(c5ccccc5F)CC4)c(C)n3n2)c(OC)c1
    -17% | -29%
> Cc1ccc(-c2nnc(CCC(=O)Nc3nc(C)cs3)o2)cc1
    0% | 125%[activator]
> Cc1nc2ccn(Cc3ccco3)c(=O)c2cc1C(=O)NCc1ccccc1F
    -7% | -20%
> CCCn1cnc2cc(NCc3ccc(OC)cc3OC)ccc21
    -10% | 61%[activator]
> COc1ccc(NC(=O)N2CCN(Cc3ccc(C)cc3)CC2)cc1
    -11% | 4%
> C/C=C/c1ccc(OCC(=O)OCC(=O)c2ccc3c(c2)OCO3)c(OC)c1
    5% | 2%
> CC1(C(=O)OCC(=O)c2ccc(Br)cc2)CC1(Cl)Cl (stereo not drawn)
    13% | 0%
> COc1ccc(C)cc1-n1nnnc1SCC(=O)NCCc1ccccc1
    7% | -10%
> CN(C)S(=O)(=O)c1ccc(C(=O)Nc2c(C(=O)Nc3ccc(F)cc3)oc3ccccc23)cc1
    -5% | 87%[activator]
> CC(C)c1cc(N2CCCC2)n2c(nc3ccccc32)c1C#N
    23% | 7%
> CCn1c(SCCCn2c(=O)c3c(ncn3C)n(C)c2=O)nc2ccccc21
    34%[activator] | 39%[activator]
> Cc1cc(SCC(=O)NN2C(=O)NC3(CCC(C)CC3)C2=O)nc2c(C)cccc12 (stereo not drawn)
    -6% | 17%
> CCOc1ccc(OCC)c(NC(=O)c2cc(C)nc3c2c(C)nn3-c2cccc(Cl)c2C)c1
    -1% | -9%
> COc1ccccc1C(=O)Nc1ccc2nc(SCC(=O)N(C)c3ccccc3)sc2c1
    -1% | -12%
> O=C(CCS(=O)(=O)c1cc2c3c(c1)CCN3C(=O)CC2)N1CCN(c2ccccc2)CC1
    -18% | -11%
> CCOC(=O)c1sc(=S)n(-c2cccc(SC)c2)c1N
    22% | 53%[activator]
> COc1cc(OC)c(NC(=O)CCc2c(C)nc3ncnn3c2C)cc1Cl
    -11% | -14%
> CCc1nn(CC(=O)NC(C)CCc2ccccc2)c(=O)c2cc3c(OC)cccc3n12 (stereo not drawn)
    -1% | -12%
> Cc1cc(S(=O)(=O)C(CNC(=O)COc2ccc(Cl)cc2)c2cccs2)ccc1F (stereo not drawn)
    -3% | 39%[activator]
> COc1ccc(NC(=O)COc2ncnc3ccccc23)c([N+](=O)[O-])c1
    -21% | 2%
> Cc1c(C(=O)OCc2ccccc2)sc(=S)n1-c1ccccc1
    33%[activator] | 173%[activator]
> CC(C)CCNC(=O)C(NC(N)=O)C(C)C (stereo not drawn)
    6% | -5%
> CCCc1ccc(C(=O)/C=C/c2cc(OC)c(OC)c(OC)c2)cc1
    ? | 4%
> CCOC(=O)c1sc(CC(=O)Nc2ccc(CC)cc2)nc1C
    -15% | 5%
> O=C(c1ccc(N2CCCN(Cc3ccccc3)C2=O)cc1)N1CCN(c2ccccc2)CC1
    -14% | ?
> COc1ccc(CSc2nc3ccncc3n2Cc2nc(-c3ccc(OC)c(OC)c3)oc2C)cc1
    -6% | 52%[activator]
> O=C(COc1ccccc1[N+](=O)[O-])Nc1ccc(-c2nc3ccccc3s2)cc1
    -6% | 130%[activator]
> N#Cc1ccc(NCCc2cccc3cccnc23)nc1
    10% | 20%
> Cc1cccc(OC(=O)c2cc3ccccc3oc2=O)c1
    33%[activator] | 148%[activator]
> FC(F)(F)C(Oc1nc(OC(C(F)(F)F)C(F)(F)F)nc(N2CCOCC2)n1)C(F)(F)F
    3% | 15%
> COc1ccc(-n2nc(C(=O)Nc3ccccc3OC)c3c4ccccc4n(C)c3c2=O)cc1Cl
    2% | 10%
> COc1ccc(Oc2c(C)oc3cc(OCC(=O)Nc4ccccn4)ccc3c2=O)cc1
    -4% | 120%[activator]
> CCN(CC)S(=O)(=O)c1ccc(-c2nc(C#N)c(NCCN(C)C)o2)cc1
    50%[activator] | 0%
> CC(C)c1ccc(NC(=O)Cn2nc3ccc(S(=O)(=O)C4CCCCC4)nn3c2=O)cc1
    -4% | -4%
> O=C(O)Cc1ccc(CCNS(=O)(=O)c2ccc(Cl)cc2)cc1
    47%[activator] | -12%
> O=C(c1cccc([N+](=O)[O-])c1)N1CCN(c2ccc(Nc3ccccc3)nn2)CC1
    -8% | -9%
> CC[C@H]1C[C@@H]2C[C@H]3c4[nH]c5ccc(OC)cc5c4CCN(C2)[C@@H]13
    -19%[114 µM] | -12%[22.9 µM]
> COc1cc2cc(C(=O)N[C@@H](C)C(=O)Nc3nccs3)n(C)c2c(OC)c1OC
    11% | 23%
> COc1ccc(NC(=O)CCSc2nc(-c3ccco3)cc(C(F)(F)F)n2)cc1
    23%&-12% | 6%&-9%
> CCOc1ccc(CCNC(=O)c2cc(=O)c3ccccc3o2)cc1OCC
    ? | ?
> O=C(Cn1nc(C(=O)O)c2ccccc2c1=O)Nc1ccc(OC(F)F)cc1
    17% | 27%
> Cc1ccc(NC(=O)CSc2ccc3ccccc3n2)cc1
    37%[activator] | 232%[activator]
> CCCCN(C)C(=O)CSc1c2c(nc3ccc(Cl)cc13)CCCC2
    -5% | -3%
> OCCCC1CCCN1 (stereo not drawn)
    14% | 20%
> FC(F)(F)c1ccc(SCc2csc(-c3ncccn3)n2)nc1
    -7% | 198%[activator]
> Cc1cc(C)cc(Oc2c(C(F)(F)F)oc3cc(OCC(=O)NC4CCCCC4)ccc3c2=O)c1
    -16% | -7%
> Cc1cc(CSc2nnc(-c3ccc(Cl)cc3)n2Cc2ccco2)on1
    181%[activator] | 56%[activator]
> COc1ccc(NC(=O)CSc2c3c(nc4ccccc24)CCC3)c(OC)c1
    -1% | -11%
> C=CCc1ccccc1OCCSc1nc(-c2ccccc2F)nc2cc(=O)[nH]n12
    40%[activator] | 7%
> O=C(Cc1ccc(F)cc1)N1CCN(c2ncnc3c2nnn3-c2ccc(F)cc2)CC1
    -6% | 1%
> CCOc1ccc(Nc2c(S(=O)(=O)c3ccccc3)cnc3ccccc23)cc1
    6% | 7%

Single records, as listed above.
O=C(Cn1nc(C(=O)O)c2ccccc2c1=O)Nc1ccc(OC(F)F)cc1 across the screens: 2A Renilla = 17%; StopGo FLuc = 27%
O=C(COc1ccccc1[N+](=O)[O-])Nc1ccc(-c2nc3ccccc3s2)cc1 across the screens: 2A Renilla = -6%; StopGo FLuc = 130%[activator]
O=C(c1ccc(N2CCCN(Cc3ccccc3)C2=O)cc1)N1CCN(c2ccccc2)CC1 across the screens: 2A Renilla = -14%; StopGo FLuc = ?

Following part.
canonical_smiles	2A Renilla	StopGo FLuc
COc1cc(OC)c(C(=O)OCC(=O)Nc2ccccc2)cc1OC	3%	-5%
COc1ccc(-c2nc(CS(=O)CC(=O)NCCc3ccc(Cl)cc3)c(C)o2)cc1OC (stereo not drawn)	30%&31%[activator]	7%&-8%
Cc1ccc(CN(Cc2ccco2)C(=O)COc2ccc(Cl)cc2)o1	10%	-22%
COc1ccc(NC(=O)c2sc3nc4c(cc3c2N)CCCCCC4)c(OC)c1	-12%	-8%
CCCCSCCCNC(=O)C1CCC(CNS(=O)(=O)c2ccccc2)CC1 (stereo not drawn)	10%	18%
O=C(O)c1ccccc1Br	0%	22%
CCc1ccccc1NC(=O)COC(=O)c1ccc2ccccc2n1	?	-18%
CCc1ccc(C(C)(c2ccc(O)cc2)c2ccc(O)cc2)cc1	49%[activator]	0%
O=C1CCCc2cc(S(=O)(=O)N3CCCC(C(=O)Nc4ccc(F)c(Cl)c4)C3)ccc2N1 (stereo not drawn)	-16%	?
O=C(NC12CC3CC(CC(C3)C1)C2)C(F)(F)F	-5%	-2%
CCCCN(C)CCCNC(=O)c1ccc2nc(N3CCCCC3)sc2c1	-3%	8%
N#Cc1nc(-c2ccccc2F)oc1N1CCCC1	23%	15%
Cc1cc(C)c2oc(=O)cc(-c3cc4ccccc4o3)c2c1	-13%	-6%
COc1ccccc1CNC(=O)c1cnn2c(C)c(Cc3ccc(F)cc3)c(C)nc12	17%	-9%
Cc1ccccc1C1C2=C(CC(C)(C)CC2=O)OC2=C1C(=O)CC(C)(C)C2	4%	-2%
O=C(CCC1CCCC1)Nc1cccnc1	2%	50%[activator]
COc1cccc(NC(=O)Cn2cc(C(=O)c3ccc(C)cc3)c(=O)c3cc(OC)ccc32)c1	17%	-15%
COc1ccc(NC(=O)CN(Cc2ccccc2)S(=O)(=O)c2ccc(C)cc2)cc1Cl	22%	-25%
O=C(/C=C/Nc1ccc(Cl)c(C(F)(F)F)c1)c1ccc(Cl)cc1	-4%	-7%
COCCNC(=O)c1ccccc1NC(=O)c1nsc2ccccc12	27%	74%[activator]
Cc1cccc(CCn2c(=O)c3ccccc3n(Cc3ccccc3C)c2=O)c1	-7%	-13%
O=C(O)c1ccc(Nc2ncnc3scc(-c4ccccc4)c23)cc1	-4%	-9%
COc1ccc(CNC(=O)C2CCN(S(=O)(=O)c3ccc4nc5c(c(C(=O)O)c4c3)CCCC5)CC2)cc1	-11%	8%
COC(=O)[C@H](NC(=O)Nc1ccc(C)cc1C)C(C)C	10%	34%[activator]
CCCc1c(C)nc2ncnn2c1Nc1ccc(C)c(C)c1	?	?
OCc1nc2ccccc2n1Cc1c(F)cccc1Cl	8%	-2%
O=C(OCC(COC(=O)c1cccnc1)(COC(=O)c1cccnc1)COC(=O)c1cccnc1)c1cccnc1	-4%	-8%
COc1ccc(CCNC(=O)NCc2noc3ccccc23)c(OC)c1	54%[activator]	2%
CCCOc1ccc(S(=O)(=O)NCCO)cc1	27%	-5%
COc1ccc(-c2csc(-c3c(C)c(C)nn(C)c3=O)n2)cc1OC	10%	0%
CCOc1ccc(N(C(C)C(=O)NCc2ccc(Cl)cc2Cl)S(C)(=O)=O)cc1 (stereo not drawn)	10%	28%
CCC(C(=O)N1CCN(c2ccccc2)CC1)n1c(C)c2cnn(-c3ccccc3)c(=O)c2c1C (stereo not drawn)	-17%	-16%
Cc1nnc(SCC(=O)Nc2ccc(Br)cc2)[nH]c1=O	15%	41%[activator]
COc1ccc(OC)c(NC(=O)C2CCCN(c3ccc4nncn4n3)C2)c1 (stereo not drawn)	-4%	5%
Fc1ccc(-c2nc(-c3ccccc3)no2)cc1	0%	167%[activator]
CCOCCCNCc1cccc(OCc2ccccc2)c1	12%	6%
CN(Cc1cccs1)C(=O)Cn1c(=O)c2c(ncn2C2CCCC2)n(Cc2ccccc2)c1=O	5%	-2%
Cc1nc(-n2nc(C)c(Cl)c2C)sc1C(=O)N1CCCC1	-4%	26%
Cc1nc2c(c(C)nn2-c2ccccc2)c(C)c1CCC(=O)Nc1ccccc1	1%	11%
COc1ccc2cnn(CC(=O)Nc3ccccc3Br)c(=O)c2c1OC	-10%	-6%
O=C(O)/C=C/c1ccc(F)c(Cl)c1	0%	4%
Cc1cc(F)ccc1NC(=O)C1CCCN(C(=O)Cc2cccc3ccccc23)C1 (stereo not drawn)	-1%	-8%
CCC(C)(CNC(=O)c1cc2c(s1)CCC2)N1CCOCC1 (stereo not drawn)	-14%	-13%
Cn1nc(C(=O)OCC(=O)NC2CC2)c2ccccc2c1=O	-14%	-2%
Cc1ccc(S(=O)(=O)c2nnn3c2nc(N2CCC(C(N)=O)CC2)c2cc(Cl)ccc23)cc1C	-12%	-1%
N#Cc1nc(Cc2ccccc2)oc1NCc1ccc(F)cc1	10%	8%
CCCn1ccc2c(OCC(=O)Nc3ccccc3OCC)cccc2c1=O	0%	-1%
COCCN(CCOC)C(=O)Cc1n[nH]c(=O)c2ccccc12	-7%	3%
O=C(OCc1cc(=O)n2nc(-c3cccs3)sc2n1)c1ccccc1Br	-1%	-3%
CCOC(=O)C1=C(N)Oc2c(c(=O)oc3ccccc23)C12C(=O)Nc1ccc(Br)cc12 (stereo not drawn)	13%	1%

Next compounds follow:
canonical_smiles	2A Renilla	StopGo FLuc
COCCCNc1oc(-c2ccc(COc3ccccc3C)o2)nc1C#N	?	?
CC(C)NC(=O)c1nc(-c2ccc3cc[nH]c3c2)no1	14%	224%[activator]
COC(=O)c1ccccc1NC(=O)CCC(=O)N1CC(C)Sc2ccccc21 (stereo not drawn)	-7%	-14%
CCC(Sc1nnc(C)n2c1cc1occc12)C(=O)Nc1ccccc1F (stereo not drawn)	-3%	18%
CCCN(CC#N)CC(=O)NC(C)(C#N)C(C)C (stereo not drawn)	7%	-3%

2 of the compounds above, as labelled records.
> CC(C)NC(=O)c1nc(-c2ccc3cc[nH]c3c2)no1
  2A Renilla = 14%
  StopGo FLuc = 224%[activator]
> COC(=O)c1ccccc1NC(=O)CCC(=O)N1CC(C)Sc2ccccc21 (stereo not drawn)
  2A Renilla = -7%
  StopGo FLuc = -14%

Hits appear at their usual frequency; overall some 0.55% were active at least once.
